Screens as filed in PubChem.
VACV mCherry inh = inhibitors of vaccinia virus infection (mCherry reporter signal); Vaccinia virus mCherry reporter infection, fluorescence; about a quarter of the inactives have no number; Potency, µM (doses to about 36.5 µM), for inactives: at the top dose activity change, negative = inhibition, hits mostly inhibitors; 0.63% of 310,000 active; active = well fitted inhibition curve with a large enough effect; inconclusive = small, poorly fitted or top-dose-only effect; inactive = no such curve, though single readings can be large or run the other way; tested in A549 cells; note: nearly all actives have a fitted effect of over 35% in size; inactives centre near -10
VACV Venus inh = inhibitors of vaccinia virus (Venus reporter) | Vaccinia virus Venus reporter expression, fluorescence | Potency, µM (doses to about 36.5 µM), for inactives: at the top dose activity change, negative = inhibition, most hits filed as inhibitors | 0.46% of 330,000 active; active means well fitted inhibition curve with a large enough effect; inconclusive means small, poorly fitted or top-dose-only effect; inactive means no such curve, though single readings can be large or run the other way; tested in A549 cells; note: nearly all actives have a fitted effect of over 30% in size; inactives centre near -10
* = called active by the depositor; i = inactive; ? = inconclusive; . = not tested or not shown; & = joins results of further samples; [ ] = another dose, or the depositor's remark. % is set by controls: 0 for no effect and ±100 for the full control effect; potency is the fitted concentration of half-maximal effect.

Each structure is followed by: VACV mCherry inh, VACV Venus inh
COc1ccc(-c2cc(-c3ccccc3)nc(Cl)n2)cc1OC
  -10%, -19%
Cc1ccc(NC(=O)CCS(=O)(=O)c2cc(Br)cc3c2N(C(=O)C2CC2)CC3)cc1
  -16%, -5%
Cc1cnc(CNc2nc(-c3cccnc3)nc3ccccc23)cn1
  -2%, 0%
Cc1cc(NC(=O)CN2C(=O)NC(C)(c3ccccc3Cl)C2=O)no1 (centres undefined)
  -12%, 3%
Cc1ccc2c(c1)c(=O)c1c3n2CCN(CC#N)C3CC1 (centres undefined)
  0%, -8%
COc1cccc(C2Oc3ccccc3C3CC(c4cccs4)=NN32)c1 (centres undefined)
  ?, -13%
CC(=O)c1cccc(NC(=O)COc2nsnc2N2CCOCC2)c1
  -13%, -13%
Cc1oc(-c2ccc(Cl)cc2)cc1C(=O)O
  -6%, -20%
Cc1ccc(SCCC(=O)N(C)CC(=O)Nc2c(C)cccc2C)cc1
  -6%, -21%
CCOc1ccc(-c2cnc3cccnn23)cc1
  i, -15%
O=P(OCC1CC1)(c1ccccc1)c1ccccc1
  -7%, -8%
Cc1ccc(C)c(S(=O)(=O)c2nnn3c2nc(NC(C)C)c2sccc23)c1
  -21%, ?
COc1ccccc1N1CCN(c2ncnc3c2cnn3-c2ccc(C)cc2)CC1
  -6%, 5%
Cc1cc(C)cc(NS(=O)(=O)c2c(C(=O)N3CCOCC3)c(C)n(C)c2C)c1
  -18%, -11%
CN1CCN(C(=O)O[C@H]2c3nccnc3C(=O)N2c2ccc(Cl)cn2)CC1
  i, -3%
CCn1cc(CN2N=C(C)CC2c2ccccc2)c(C)n1 (centres undefined)
  i, -3%
Cc1cc(NC(=O)CSC2=NS(=O)(=O)c3ccccc3N2)no1
  -10%, -9%
NC(=O)[C@@H]1CCOc2c(F)cc([N+](=O)[O-])cc2C(=O)N[C@@H](CO)C(=O)NCC(=O)N1
  -14%, -7%
CCCCc1nc2ccccc2n1CC(=O)NN
  -2%, -4%
Cc1ccc(Sc2c(C)nn(C(=O)COc3ccccc3)c2C)cc1
  i, -8%
COc1cccc2cc(-c3nnc(SCC(=O)NCCc4ccccc4)n3C)oc12
  i, 3%
Cn1c(CNC(=O)c2ccccc2F)nnc1SCc1ccc(Cl)cc1
  -8%, -18%
CC(C)CCOc1cccc(C2c3c(oc4ccccc4c3=O)C(=O)N2CCCN2CCOCC2)c1 (centres undefined)
  -10%, -5%
CN(C)c1ccc(/C=[N+]2\C(=O)CC(=O)NC2=O)cc1
  -9%, -9%
CCc1nnc(NC(=O)c2cccc(S(=O)(=O)N3CCN(C)CC3)c2)s1
  i, -4%
CC(=O)Oc1ccccc1C1=NN(C(=O)/C=C/c2ccccc2)C(c2ccccc2)C1 (centres undefined)
  -8%, -29%
CC(C)COC(=O)/C(C#N)=C\c1ccc(-c2ccccc2Cl)o1
  -3%, 0%
COC(=O)C(Cc1c[nH]c2ccccc12)NC(=O)C(C)C (centres undefined)
  -13%, -1%
O=C(O)c1cccnc1Sc1ncnc2sc3c(c12)CCC3
  i, -16%
COCc1[nH][nH]c(=O)c1C=Nc1ccc(Oc2ccccc2)cc1
  -14%, -11%
C=CCn1c(SCC(=O)NCCc2ccccc2)nnc1C1CC1
  i, -9%
O=C1CCC(C(=O)OCC(=O)C23CC4CC(CC(C4)C2)C3)N1 (centres undefined)
  -20%, -22%
COc1ccc(NC(=O)Cn2c(=O)oc3ccccc32)cc1
  1%, -4%&-8%
Cc1nn(-c2ccccc2)c(=O)c2noc(C)c12
  -21%, -8%
COc1ccccc1CNC(=O)COC(=O)c1ncc(Cl)c(Cl)c1Cl
  -13%, -2%
CCOC(=O)[C@@H]1[C@H]2COc3cc(OC)ccc3[C@@H]2N2C(=O)N(c3ccc(C(F)(F)F)cc3)C(=O)[C@]12C
  -13%, -12%
Cc1cccc(OC(C)C(=O)OCC(=O)Nc2sccc2C(N)=O)c1 (centres undefined)
  -8%, 0%
O=C(CSCc1ccccc1Br)N/N=C/c1ccc2c(c1)OCO2
  -10%, -30%
CC(C)C(=O)NC(=S)Nc1ccccn1
  -4%, -3%
CCN(Cc1ccccc1)C(=O)CN1C(=S)NC(C)(C)CC1C (centres undefined)
  -14%, -8%
COc1ccc(-c2cc(C(F)(F)F)n3nc(C(=O)O)cc3n2)cc1OC
  ., -6%
CN(C)C(=O)CSc1nc(-c2cccs2)c(-c2cccs2)[nH]1
  i, -3%
CCOC(=O)c1cc(-c2ccc(C)cc2)n(CCCC(=O)Nc2cc(C)ccc2C)c1
  ?, -27%
Cc1c(CC(=O)N2C[C@H]3C[C@@H](C2)c2cccc(=O)n2C3)c(=O)oc2cc3occ(C(C)(C)C)c3cc12
  -2%, -1%
CCC(=O)N(Cc1ccco1)c1nc(-c2ccc(OC)cc2)cs1
  ., -4%
COc1cc(O)c2c(=O)cc(-c3ccccc3)oc2c1
  -10%, -12%
CC(C)(C)CC(=O)Nc1nnc2n1CCS2
  7%, 9%
CCCCCn1c(=S)[nH]c2ncccc2c1=O
  -14%, -2%
O=C(Nc1cccc(Cl)c1Cl)c1ccco1
  -22%, -14%
CCOC(=O)/C(=C/c1ccc(F)cc1)NC(C)=O
  -5%, -8%
CCn1c(Cc2c(C)[nH]c3ccccc23)nnc1SCC(=O)NCc1ccco1
  -18%, -2%
CCOC(=O)C1(C)CCN1C(=O)c1ccc(N(C)C)cc1 (centres undefined)
  55%[activator], 8%
CCOC(=O)N1CCN(S(=O)(=O)c2ccc3c(c2)CCN3C(=O)C2CC2)CC1
  i, -12%
COC(=O)c1sc(NC(=O)CSc2nnc(C(C)C)n2C)nc1C
  -20%, -13%
CC(C)CN(Cc1c(O)ccc2ccccc12)CC(C)C
  -21%, -2%
CNc1ccc(/C=C2\C=Cc3ccccc32)cc1
  -23%, -22%
O=C(CO/N=C/c1ccc(OC(F)F)cc1)NCc1cccs1
  -24%, -10%
COc1cc(-c2nnc(SCc3cccnc3)n2C)cc(OC)c1O
  -6%, -6%
CCOC(=O)c1ccc(NC(=O)c2nc[nH]c2C(=O)N[C@@H](C)C(=O)OC(C)(C)C)cc1
  i, ?
O=C(Cc1ccc(Br)cc1)OCC(=O)c1ccc[nH]1
  0%, -15%

(more compounds)
Each structure is followed by: VACV mCherry inh, VACV Venus inh
CCC1CCCCN1C(=O)CSc1nnc(CNC(=O)c2cc(OC)c(OC)c(OC)c2)o1 (centres undefined)
  i, -11%
CC1(C)SC(=Nc2ccccc2)N(S(=O)(=O)c2ccccc2)C1=O
  i, 0%
CC(NC(=O)c1cncc(Br)c1)c1ccc(S(N)(=O)=O)cc1 (centres undefined)
  -17%, -15%
COc1ccc(CNC(=S)Nc2ccc(Br)cc2)cc1
  -6%, -19%
O=C1OCCC1Sc1nc2ccccc2c(=O)n1Cc1ccccc1 (centres undefined)
  -4%, 4%
CCOC(=O)Nc1sc(=S)n(C)c1C
  i, -7%
O=P(Cc1ccncc1)(c1ccccc1)c1ccccc1
  ., -2%
CC/C(O)=C1\C(=O)CC(C)(C)CC1=NCCc1nc2ccccc2[nH]1
  i, -8%
Cc1ccn2c(Nc3ccc4c(c3)OCCO4)c(-c3cccs3)nc2c1
  -14%, -8%
CC(C)NC(=S)N/N=C/C1=CCC2CC1C2(C)C (centres undefined)
  -3%, -19%
CC(=O)Nc1ccc(NC(=O)CSc2nnc(C)c(=O)n2N)cc1
  -2%, -6%
COc1cccc(NC(=O)NC2CCCCCCC2)c1
  i, -23%
CCCc1cc(=O)[nH]c(SCCOc2ccc(OCC)cc2)n1
  i, -15%
COc1cc(CC(=O)NCC(C)(C)N2CCOCC2)cc(OC)c1OC
  i, -4%
Nc1ccc(CCn2ccnc2)cc1
  -4%, 1%
CCC(=O)N1CCC1(C)C(=O)Nc1cccc(Oc2ccccc2)c1 (centres undefined)
  20%, -7%
C[C@]12C(=O)N(c3ccc(Br)cc3)C(=O)N1[C@H]1c3ccccc3OC[C@@H]1[C@H]2c1ccccc1
  i, -8%
CC1CCN(S(=O)(=O)N2CCCC(C(=O)NCc3ccc(F)cc3)C2)CC1 (centres undefined)
  ?, -4%
COc1ccc2c(c1)sc1ncc(C(=O)NCc3ccc(Cl)cc3)c(=O)n12
  2%, -5%
CCOC(=O)[C@@H]1[C@H]2COc3ccc(Br)cc3[C@@H]2N2C(=O)N(c3ccc(F)cc3)C(=O)[C@]12C
  i, -22%
CC(SCc1ccccc1)C(=O)N/N=C/c1ccc2c(c1)OCO2 (centres undefined)
  -10%, -2%
COc1ccc(N2CCN(C(CNC(=O)C(=O)NC3CC3)c3ccco3)CC2)cc1 (centres undefined)
  -13%, -8%
Cc1ccccc1NC(=O)c1ccccc1NC(=O)c1ccco1
  -24%, -14%
O=[N+]([O-])c1[nH]cnc1Br
  -25%, 7%
CC(C)(C)c1ccc(C(=O)OCC(=O)Nc2sc3c(c2C#N)CCC3)cc1
  -20%, -12%
C[C@@]12CCC=C[C@H]1[C@H](c1ccc(/C=C/c3ccccc3)cc1F)N(Cc1ccccc1)C2=O
  -10%, -20%
COc1ccccc1OCc1ccc(C(=O)NCc2ccco2)o1
  -20%, -4%
Cc1cc(=O)n2nc(N(C)CC(=O)NCc3ccc(Cl)cc3)sc2n1
  -8%, -3%
C=C(C)COc1ccc2c(C)c(CCC(=O)N3C[C@H]4C[C@@H](C3)c3cccc(=O)n3C4)c(=O)oc2c1
  -7%, 3%
O=C(N/N=C/c1ccncc1)c1cc(C2CC2)nc2ccccc12
  47%[activator], -2%

Copied from the results shown, 7 compounds:
Each structure is followed by: VACV mCherry inh, VACV Venus inh
CCN(Cc1ccccc1)C(=O)CN1C(=S)NC(C)(C)CC1C (centres undefined)
  -14%, -8%
COc1ccc(-c2cc(C(F)(F)F)n3nc(C(=O)O)cc3n2)cc1OC
  ., -6%
CN(C)C(=O)CSc1nc(-c2cccs2)c(-c2cccs2)[nH]1
  i, -3%
CCOC(=O)c1cc(-c2ccc(C)cc2)n(CCCC(=O)Nc2cc(C)ccc2C)c1
  ?, -27%
Cc1c(CC(=O)N2C[C@H]3C[C@@H](C2)c2cccc(=O)n2C3)c(=O)oc2cc3occ(C(C)(C)C)c3cc12
  -2%, -1%
CCC(=O)N(Cc1ccco1)c1nc(-c2ccc(OC)cc2)cs1
  ., -4%
COc1cc(O)c2c(=O)cc(-c3ccccc3)oc2c1
  -10%, -12%

Later entries
Each structure is followed by: VACV mCherry inh, VACV Venus inh
CCOc1ccc(CCNC(=O)c2ccc(CNS(=O)(=O)c3ccccc3)cc2)cc1OCC
  -13%, -19%
O=C1CSC(c2ccc(Cl)cc2)N1Nc1nc(N2CCOCC2)nc(N2CCOCC2)n1 (centres undefined)
  -5%, -6%
Cc1ccccc1C1(CC(=O)N2CCCCC2c2cccnc2)CC(=O)N(C2CCCC2)C1=O (centres undefined)
  -18%, -21%
C#CCOCCOCCOCCNc1nc(N2CCN(C(=O)[C@H](CCCN=C(N)N)n3cc(C(N)[C@@H](C)CC)nn3)CC2)nc(N2CCN(C(=O)[C@H](CCC(=O)O)n3cc([C@@H](N)CO)nn3)CC2)n1 (some centres undefined)
  i, 7%
CC(CCc1ccco1)NC(=O)Cn1ncc2c1-c1ccccc1OC2 (centres undefined)
  i, -4%
CC(C)NC(=O)CC(=O)N/N=C/c1ccc(F)cc1
  -12%, 0%
C/C(N)=N\S(=O)(=O)c1ccc(Cl)cc1
  -16%, -9%
COc1ccc(-c2cn(Cc3ccc4c(c3)C(=O)c3ccccc3C4=O)nn2)cc1
  ?, -25%&-18%
CN(C)CCNC(=O)c1cccc(-c2cnc3c(NC=O)cc(-c4ccccc4F)cn23)c1
  ?, ?
CCOC(=O)c1ccc(NC(=O)c2nc[nH]c2C(=O)NCCCNC(=O)c2[nH]cnc2C(=O)Nc2ccc(C(=O)OCC)cc2)cc1
  0%, -8%
Cn1c(CC2C(=O)Nc3ccc(Br)cc32)nc2ccccc2c1=O (centres undefined)
  -5%, -8%
Clc1ccccc1NN(Cc1ccncc1)c1ccccc1Cl
  -14%, -13%
COC(=O)c1c(NC(=O)CN2C(=O)NC3(CCc4ccccc4C3)C2=O)sc2c1CCCCC2 (centres undefined)
  -9%, -3%
CCOC(=O)CSc1nc(C)cc(C)n1
  ., -24%
C/C=C(\C)C(=O)O[C@H](c1cc2ccc(=O)oc2cc1OC)[C@@H](O)C(C)(C)O
  -7%, -5%
CC(C)c1ccc(NS(=O)(=O)c2ccc(Cl)nc2)cc1
  4µM*, 7.9µM*
Cc1ccc(F)cc1C(=O)N1CCCCC1c1cc(C(=O)Nc2ccc(F)c(Cl)c2)no1 (centres undefined)
  10%, -13%
Clc1ccc(-n2nnnc2SCc2c(-c3ccccc3)nc3sccn23)cc1
  -4%, -7%
COc1cc2c(cc1OC)CN(C(=O)COc1ccc(C#N)cc1)CC2
  i, -12%
COc1ccc(C(C)(C)C)cc1S(=O)(=O)n1ccnc1C
  -9%, 5%
COc1ccc(-c2[nH]c(-c3ccccc3)nc2SCC(=O)Nc2nccs2)cc1
  i, -22%
CCN(CC(=O)Nc1ccc(C)c(S(=O)(=O)N2CCOCC2)c1)Cc1ccccc1
  -2%, -19%
COc1cccc(CNC(C)(C)CO)c1OCc1ccc(Cl)cc1
  -4%, -5%
Cc1ccc(C2CC(c3ccccc3)=NN2c2ccc(S(N)(=O)=O)cc2)cc1 (centres undefined)
  -3%, -11%
